HIV TAR-Tat: HIV-1 TAR-Tat binding disruption. z-score (concentration not given with the values). HIV-1 TAR RNA, Tat peptide displacement FRET; active compounds read high. 100,000 compounds, 0.6% hits. AID 1259389;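 note: score is relative to mean and SD of negative controls; some compounds called inactive have numbers as strong as hits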
CDC25B-CDK2 inh: human CDC25B-CDK2/CyclinA binding inhibition | AID 1259370 | P30305+P24941 | 94,000 compounds, 0.72% hits | z-score (no concentration beside the values) | HTRF CDC25B-CDK2/CyclinA binding, anti-His/anti-Flag; active compounds read high;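 note: score is relative to mean and SD of negative controls; strong numbers were not always called active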
Active calls of the source: *; nt = not tested or not shown.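 Rule for the calls: active = z-score from 3 up in half or more of its runs; inactive = the rest.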

The opening five records, ahead of the listing:
SMILES	HIV TAR-Tat	CDC25B-CDK2 inh
O=C1C2CCCN2C(c2ccc(Cl)cc2)N1c1ccc(F)cc1 (centres undefined)	nt	0.17
CN1C/C(=C\c2ccc(C(F)(F)F)cc2)C2=NN(C)C(c3ccc(C(F)(F)F)cc3)C2C1 (centres undefined)	nt	-0.99
CC(=O)[C@@]1(O)CC[C@H]2[C@@H]3C[C@H](C)C4=CC(=O)CC[C@]4(C)[C@H]3CC[C@@]21C	1.7	nt
CCc1nn(CC(=O)N2CCCC2)c(=O)c2cc3ccccc3n12	0.55	-2.9
Cc1ccccc1Nc1nc(NC2CCCC2)nc2c1cnn2C	0.27	nt

Main list, previewed entries included:
SMILES	HIV TAR-Tat	CDC25B-CDK2 inh
O=C1C2CCCN2C(c2ccc(Cl)cc2)N1c1ccc(F)cc1 (centres undefined)	nt	0.17
CN1C/C(=C\c2ccc(C(F)(F)F)cc2)C2=NN(C)C(c3ccc(C(F)(F)F)cc3)C2C1 (centres undefined)	nt	-0.99
CC(=O)[C@@]1(O)CC[C@H]2[C@@H]3C[C@H](C)C4=CC(=O)CC[C@]4(C)[C@H]3CC[C@@]21C	1.7	nt
CCc1nn(CC(=O)N2CCCC2)c(=O)c2cc3ccccc3n12	0.55	-2.9
Cc1ccccc1Nc1nc(NC2CCCC2)nc2c1cnn2C	0.27	nt
O=c1c(N2CCOCC2)csc2ccc(Br)cc12	-0.72	nt
O=C1CCSc2ccc(S(=O)(=O)NCCCN3CCCC3=O)cc2N1	1.3	nt
CC1CC(C)CN(CCCNS(=O)(=O)c2cc(Br)cc3c2N(C(=O)C2CC2)CC3)C1 (centres undefined)	-1.3	0.27
Clc1ccccc1Cc1nnc(-c2ccccc2)o1	0.45	-0.32
Cc1cc(C)n(CCc2nc3c4ccccc4nc(N4CCc5ccccc5C4)n3n2)n1	0.39	0.46
Cc1cn2c(=O)c(S(=O)(=O)NCc3ccc(F)cc3)c(C)nc2s1	-0.84	nt
Cc1oc(-c2cccs2)nc1Cn1c(=O)c2cccnc2n(-c2ccccc2)c1=O	2.1	nt
Cc1ccc(S(C)(=O)=NC(=O)c2ccc(C(C)(C)C)cc2)cc1 (centres undefined)	nt	-0.58
CC1Cn2cc(C(=O)NCc3ccccn3)c(=O)c3c(Cl)ccc(c32)O1 (centres undefined)	0.92	nt
CC1=C(OS(=O)(=O)c2cc(Cl)sc2Cl)C(=O)CC1	nt	-1.6
CSc1sc(C(=O)Nc2ccc(F)c(Cl)c2)c(-c2ccc(Cl)cc2)c1C#N	nt	-4.7
COc1ccc(-c2csc3nc(-c4ccccc4C)oc(=O)c23)cc1OC	-0.49	-0.06
O=C1NNC(c2ccccc2)C1c1ccccc1 (centres undefined)	nt	1.1
CCOC(=O)c1c(S(=O)(=O)N2CCCC(C(=O)NC3CCCC3)C2)c(C)n(C)c1C (centres undefined)	2.3	nt
O=C(Nc1nc(-c2cc([N+](=O)[O-])cs2)cs1)c1ccccc1	0.19	nt
CCOc1ccccc1OCCCCCCc1c(C)n[nH]c1C	-0.34	-0.17
CC(=O)N1CCOc2ccc(S(=O)(=O)N3CCc4ccccc4C3)cc21	1.6	-1.7
CC(=O)Nc1c2n(c3ccc(F)cc13)CC(C)(C(=O)NC1CCCC1)N(c1ccc(Cl)cc1)C2=O (centres undefined)	1	nt
Fc1ccc2nsnc2c1	nt	-0.21
Cc1ccc2c(c1)-c1onc(C(=O)N(CCN(C)C)Cc3ccco3)c1CO2	2.5	nt

Remaining list, next part
SMILES	HIV TAR-Tat	CDC25B-CDK2 inh
O=C(CCCN1C(=O)c2ccccc2Sc2ncccc21)NCCc1cccs1	-2.2	nt
CCn1c(C(=O)N2CCC(C(=O)NCCc3ccc(S(N)(=O)=O)cc3)CC2)cc2sccc21	nt	-3.7
CC(C)(C)C(=O)N(c1ccccc1)C1C=CS(=O)(=O)C1 (centres undefined)	1.2	-1.6
CCOC(=O)C1CCN(c2cc(C(=O)O)c3cc(N)ccc3n2)CC1	-7.4	nt
O=C(c1ccccc1-c1nc(-c2ccc(Cl)cc2)no1)N(Cc1ccco1)CC1CCCO1 (centres undefined)	0.05	nt
O=C1CCSc2c1cccc2C(=O)Nc1nccs1	1.1	nt
CC(C)n1c(SCc2ccc(Cl)cc2)nc2c1c(=O)[nH]c(=O)n2C	nt	-1.9
CCCNC(=O)Cn1cnc2c1c(=O)n(C)c(=O)n2C	1.6	-0.77
CCOC(=O)/C(C#N)=C1/C=Nc2ccccc2N1	nt	0.77
COc1cc2nc(SCc3ccc(Cl)cc3)n3nc(C)nc3c2cc1OC	nt	-1.6
COC(=O)C1=C(C)NC2=C(C(=O)CC(C)(C)C2)C1c1ccsc1 (centres undefined)	0.65	1.9
CCOc1ccc2noc3c2c1C(=O)c1ccccc1-3	1.1	-1.3
CCc1ccc(-c2cc(C)no2)cc1S(=O)(=O)Nc1ccc(C)c(F)c1	1.2	nt
O=C(NCCN1CCOCC1)c1cc2nc(-c3ccc(Br)cc3)cc(C(F)(F)F)n2n1	0.23	-0.83
Cc1cc(C)cc(N2CCn3c2nc2c3c(=O)n(CC(=O)O)c(=O)n2C)c1	1.6	-7.4
CC1CN(c2ncnc3sc4c(c23)CCC4)CC(C)O1 (centres undefined)	1.2	nt
CCOCC(=O)Nc1nc2c(s1)C(=O)CC(C)(C)C2	0.72	-0.11
O=C(Cc1ccccc1)OC1=CN(Cc2ccccc2)S(=O)(=O)c2ccccc21	-0.16	-0.82
COc1ccc(CN2CCc3nc(N4CCN(C)CC4)ncc3C2)c(OC)c1	1.9	nt
O=C(Nc1ccc(F)cc1)c1cc2c(s1)-c1ccccc1OC2	-0.7	-0.55
Cc1ccc(S(=O)(=O)c2nnn(-c3cccc(Cl)c3)c2C)cc1	1.1	-0.49
Cn1c(=O)c2c(-c3cccc(Br)c3)n(CCc3c[nH]c4ccccc34)cc2n(C)c1=O	-0.83	-0.71
CS(=O)(=O)c1ncc(Cl)cn1	nt	-1.5
Cc1c(C[C@H](N)C(=O)O)sc2ccccc12	nt	-2.2
CN(C)CCN(C(=O)CCSc1ccccc1)c1nc2ccc(F)cc2s1	0.23	nt

Remaining list, next part
SMILES	HIV TAR-Tat	CDC25B-CDK2 inh
O=C(c1cnc2cc(-c3ccc(Cl)cc3)nn2c1)c1cc(F)ccc1O	-1.3	-2.3
O=C(NC(=O)c1ccno1)Nc1ccccc1Cl	nt	-1.8
CSc1ccc(CNC(=O)c2oc3c(c2C)C2N=C(C)SC2CC3)cc1 (centres undefined)	0.29	nt
N[C@@H](Cc1ccccc1)c1nnc(SCc2ccccc2Cl)o1	0.95	0.12
Cc1ccc(C)n1-c1cccc([N+](=O)[O-])c1	nt	-0.85
COc1cccc(Nc2ncnc3c2nc2n3CCCC2)c1	0.29	nt
O=C(Cc1cccs1)N(Cc1ccco1)C1(C(=O)NC2CCCCC2)CCCCC1	nt	-1.2
Cn1c(SCC(=O)Nc2nnc(-c3ccccc3)s2)nnc1-c1cc2ccccc2o1	1.2	nt
Cc1ccc(S(=O)(=O)n2nc(C)cc2N)cc1	1.1	-0.93
Cn1c(=O)n(C)c2cc(N3CCOCC3)c(NC(=O)C(C)(C)C)cc21	0.84	-2.4
O=c1c(NCc2ccccc2)c(-c2ccc(Cl)cc2)c1=O	-0.88	nt
CC(NC(=O)Nc1ccccc1Cl)c1c(-n2cccc2)sc2c1CCCC2 (centres undefined)	0.02	-0.35
C=CCNc1csc(CC(=O)OCC)n1	nt	-2.1
c1cc2c(cc1Nc1nnc3n1CCCCC3)OCCO2	1.9	-1.7
Cc1ccc(CN(C(=O)c2cc(=O)c3ccccc3o2)C2CCS(=O)(=O)C2)cc1 (centres undefined)	1	-1
CCCCOC(=O)c1cnn2c(C(F)(F)F)cc(-c3ccccc3)nc12	0.17	1.5
CN(C)c1ccc(C2NC(=O)c3c(sc4c3CCC(C(C)(C)C)C4)N2)cc1 (centres undefined)	1.9	-0.84
O=C(NCC1CCCO1)c1cc2sc3ccccc3c2s1 (centres undefined)	nt	-1.3
O=C(Nc1ccc2c(c1)OCO2)C1CC(=O)N(CCc2c[nH]c3ccc(Cl)cc23)C1 (centres undefined)	1.2	1.2
Cc1ccc(OCc2nn3c(C4COc5ccccc5O4)nnc3s2)cc1 (centres undefined)	1.5	-0.73
Cc1ncc(-c2ccc(S(=O)(=O)N3CCc4ccccc43)cc2)o1	0.74	nt
CC(C)CCNc1nn2nnnc2c2ccccc12	0.81	nt
CS(=O)(=O)CC[C@@H](C(=O)NC1CCCC1)N1Cc2ccccc2C1=O	1.2	-0.24
CSc1nc2n(n1)C(c1cccc(Br)c1)C1=C(CCCC1=O)N2 (centres undefined)	1.2	-2.1
COc1ccc(N2CCN(c3cc(C)nc(-n4nc(C)cc4C)n3)CC2)cc1	0.71	nt

An excerpt from above in order of number of heavy atoms, low to high.
SMILES	HIV TAR-Tat	CDC25B-CDK2 inh
Cc1ccc(S(=O)(=O)c2nnn(-c3cccc(Cl)c3)c2C)cc1	1.1	-0.49
CCOC(=O)c1c(S(=O)(=O)N2CCCC(C(=O)NC3CCCC3)C2)c(C)n(C)c1C (centres undefined)	2.3	nt
O=C(c1ccccc1-c1nc(-c2ccc(Cl)cc2)no1)N(Cc1ccco1)CC1CCCO1 (centres undefined)	0.05	nt

Other structures:
SMILES	HIV TAR-Tat	CDC25B-CDK2 inh
CCOC(=O)N1CCN(C(=O)COc2ccc3c(c2)C(=O)CC2(CCCCC2)O3)CC1	0.83	-0.13
CCCC12CN3CC(C)(CN(C1)C3c1ccc(O)cc1O)C2=O (centres undefined)	nt	-0.86
COCCCNC(=O)Cn1cnc2sc(C)c(S(=O)(=O)N3CCCCC3)c2c1=O	0.39	-0.84
Cc1ccccc1CS(=O)(=O)CC1Nc2ccc(C(=O)O)cc2NC1=O (centres undefined)	1	nt
Cn1c2ccccc2n2c(SCCOc3ccc(Cl)cc3)nnc12	1.4	-0.12
COCCNc1nc2c(S(=O)(=O)c3ccccc3)nnn2c2ccsc12	-0.65	nt
Cc1ccc(/C=C2\CCCc3ccccc3C2=O)cc1	nt	-0.42
NC1=NC(c2ccc(F)cc2)CC(=O)N1 (centres undefined)	16	-0.88
CC(C)CC(=O)Nc1ccc2c(c1)C(=O)N(C)C1=NCCN12	0.87	nt
c1ccc(-c2ccc(-c3cn4ccccc4n3)cc2)cc1	1.7	-1.1
CC1CCC(Nc2c(-c3ccccc3)c(=O)c2=O)CC1 (centres undefined)	1	nt
O=C(O)CSc1c2c(nc3cc(C(=O)NCC4COc5ccccc5O4)ccc13)CCCC2 (centres undefined)	-1.1	1.1
c1ccc(-c2cc(N3CCCCC3)n3cnnc3n2)cc1	-1	-0.98
Cn1c(C(=O)N2CCC(C(=O)N3CCN(Cc4ccc5c(c4)OCO5)CC3)CC2)cc2sccc21	-0.71	-0.61
O=c1[nH]c2cc3c(cc2c(=O)n1Cc1nc(-c2cccnc2)no1)OCO3	0.38	nt
CCCN1CCN(S(=O)(=O)c2ccc3[nH]c(=O)ccc3c2)CC1	3	nt
O=C(c1ccc(CSc2nc3ccncc3[nH]2)cc1)N1CCN(c2ccccn2)CC1	1.3	-0.59
Cc1ccc(-c2nnc3sc(/C=C/c4ccccc4)nn23)cc1	0.78	3.6
Cc1ccc(C2=NS(=O)(=O)N(C)C(C(=O)N3C(C)CC(C)CC3C)=C2)cc1 (centres undefined)	0.85	-1.7
O=C(NCCCN1CCOCC1)c1cc2c(s1)-c1ccsc1CC2	1.4	nt
Cc1cccc2nc(-c3cccnc3)c(NC3CCCCC3)n12	3.7	-1.1
Clc1cccc(-c2nnc3sc(/C=C/c4ccccc4)nn23)c1	2.4	-1.8
O=C(NCc1cccn1Cc1ccc(Cl)cc1)Nc1cc(F)ccc1F	-0.69	nt
Cc1noc(/C=C/c2ccco2)c1[N+](=O)[O-]	nt	-2.1
CCCC12CN(C(=O)CC)CC(CCC)(CN(C(=O)CC)C1)C2=O	0.49	-0.81

(list continues)
SMILES	HIV TAR-Tat	CDC25B-CDK2 inh
OC1CCN(C(=S)NCCc2ccccc2)CC1	nt	1.1
O=S(=O)(CC(c1ccccc1)N1CCCCC1)c1ccc(Cl)cc1 (centres undefined)	nt	-0.75
Cc1cc(C)cc(NS(=O)(=O)c2ccc3[nH]c4c(c3c2)CCCC4)c1	0.46	nt
c1ccc2nc(N3CCOCC3)c(N3CCOCC3)nc2c1	2.3	-1.7
CN(C(=O)Cn1c(SCc2ccc(F)cc2)nc2ccncc21)C1CCCCC1	-1.3	-1.3
Cc1cc2[nH]c(=O)[nH]c2cc1NC(=O)CC(C)C	-0.73	nt
O=C(NCc1nc(-c2ccccc2)no1)N1CCOCC1	2	-0.87
Cc1ccc(-c2csc3c2ncn2c(=O)n(CC(=O)Nc4ccc5c(c4)OCCO5)nc32)cc1	1.2	nt
COc1ccc(/C=C/c2nc(C#N)c(NCc3ccc4c(c3)OCO4)o2)cc1OC	1.3	-1.5
CCCCN(CCNC(=O)c1nn(C)c2c1CSc1ccccc1-2)Cc1ccco1	1.2	-1.4
Cc1ccc2c(n1)sc1c(=O)n(-c3ccccc3Cl)nnc12	0.97	-0.64
O=C(c1ccccc1)C1CCN(c2ncccc2[N+](=O)[O-])CC1	nt	0.51
Cc1c(C(=O)NCc2cccs2)oc2ccc(S(=O)(=O)N3CCOCC3)cc12	nt	0.02
O=C(O)Cc1ccccc1Sc1ccccc1	nt	-1.1
O=C(CCS(=O)(=O)c1cccc2nsnc12)N1CCc2ccccc21	-2.5	-2.1
O=C(Nc1ccc(Cl)c(-c2nc3ncccc3o2)c1)c1ccc2ccccc2c1	nt	-6.2
COCc1cc(=O)n2[nH]c(C)nc2n1	-0.96	-2.1
O=C(Nc1ccccn1)c1cccn2c(-c3ccccc3F)nnc12	1.7	nt
CCOC(=O)c1cc(-c2ccc(S(=O)(=O)Nc3cc(C)cc(C)c3)s2)on1	-0.89	nt
COC(=O)c1cnc(NNS(=O)(=O)c2ccc(Cl)cc2)nc1C(F)(F)F	nt	-0.87

High-throughput results: PubChem BioAssay, Center for Chemical Genomics, University of Michigan

No enrichment for hits; about 0.87% have a hit in one of these screens.
